Compound activity deposited in PubChem BioAssay by several laboratories.
YopH inh: YopH (Yersinia) phosphatase inhibition; hit rate 0.16% among 140,000; AID 898; fluorescence Ex485/Em525; inhibition, %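 (about 10 µM by stock and volumes)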;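 active = inhibition of 50% or more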;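 note: controls were vehicle for no effect and minimum signal wells for full effect; inactives centre near -20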
Mtb growth: M. tuberculosis H37Rv growth inhibitors, H37Rv strain (AID 1626); M. tuberculosis H37Rv growth inhibition; higher % means a stronger effect; inhibition, % at 10 µM, or IC50 in µM where a hit was titrated; hit rate 0.95% among 220,000;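 active = confirmed in a dose series; inconclusive = inhibition above 80% but not taken into the dose series; inactive = below 80% or under 30% at every dose of the series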;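 note: bacteria incubated seven days before Alamar blue readout; 0% = bacteria only wells and 100% = bacteria with antibiotic wells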
RecA intein inh: inhibitors of M. tuberculosis RecA intein splicing | cell-free RecA intein splicing, fluorescence | AID 2221 | inhibition, %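 (about 9 µM by stock and volumes)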 | hit rate 0.75% among 290,000 | P9WHJ3; in the data active = inhibition above about 30%; inconclusive = no clear call, values can overlap the other calls;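 note: 0% = vehicle wells and 100% = reference inhibitor control wells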
Target sequence (P9WHJ3 whole entry, looked up): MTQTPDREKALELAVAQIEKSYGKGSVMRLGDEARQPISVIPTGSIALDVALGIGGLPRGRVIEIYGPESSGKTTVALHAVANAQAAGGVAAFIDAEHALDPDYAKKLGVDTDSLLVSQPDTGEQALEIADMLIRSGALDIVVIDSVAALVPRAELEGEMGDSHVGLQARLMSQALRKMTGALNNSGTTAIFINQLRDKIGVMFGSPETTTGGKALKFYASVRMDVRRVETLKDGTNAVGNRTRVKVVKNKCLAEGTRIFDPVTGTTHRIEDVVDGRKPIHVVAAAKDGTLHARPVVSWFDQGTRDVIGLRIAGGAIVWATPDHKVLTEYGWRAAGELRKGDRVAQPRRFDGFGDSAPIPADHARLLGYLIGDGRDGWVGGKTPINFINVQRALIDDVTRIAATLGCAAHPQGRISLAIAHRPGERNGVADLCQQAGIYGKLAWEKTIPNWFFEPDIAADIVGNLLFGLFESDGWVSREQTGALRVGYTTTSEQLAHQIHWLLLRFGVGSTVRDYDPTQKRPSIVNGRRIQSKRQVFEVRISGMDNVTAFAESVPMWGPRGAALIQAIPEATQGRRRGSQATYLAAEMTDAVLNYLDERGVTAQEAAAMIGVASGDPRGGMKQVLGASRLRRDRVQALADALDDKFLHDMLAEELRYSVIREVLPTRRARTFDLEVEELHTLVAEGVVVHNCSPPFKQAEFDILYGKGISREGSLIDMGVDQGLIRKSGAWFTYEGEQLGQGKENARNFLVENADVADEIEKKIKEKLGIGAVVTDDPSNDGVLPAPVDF
Arbovirus inh: arbovirus infection inhibition. hit rate 0.37% among 200,000. arbovirus infection cell-based antiviral screen. inhibition, % at 10 µM;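 active = inhibition from about 30%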;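 note: bluetongue infection of BSR cells; cell survival read as ATP light after 72 h; 0% = infected wells without compound and 100% = uninfected wells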
Mtb betalactam: beta-lactam sensitization of Mtb H37Rv. M. tuberculosis H37Rv growth with meropenem, percent inhibition; hits of this screen are not shown here. inhibition, % at 25 µM. hit rate 0.27% among 330,000;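 active = about 74% or more and at least 40 points above the plate without the antibiotic, then above 30% in a dose series; inconclusive = first-round hits that could not be retested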;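 note: growth measured after seven days incubation then overnight dye step; 0% = bacteria only wells and 100% = bacteria with antibiotic; twin plates without the antibiotic show which effects depend on it; some results filed as inactive read as strong as hits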
Arbovirus inh repeat: second read-out of Arbovirus inh, no call of its own (marks repeat the call); inhibition, %; measured here: 10K subset replicate screen; many hits read low in the repeat;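 first of two repeat runs on a subset; 0% = infected and 100% = uninfected wells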
* = called active by the depositor; ? = inconclusive; / = no result given. Some of the compounds tested; rates above refer to the full screens.

SMILES	YopH inh	Mtb growth	RecA intein inh	Arbovirus inh	Mtb betalactam	others
COc1ccc(N2CCN(C(CNC(=O)c3ccco3)c3cccnc3)CC2)cc1 (centres undefined)	-19	-7%	-1.1	10	-5
NS(=O)(=O)c1cccc(NC(=O)c2cc3ccccc3o2)c1	/	-3%	/	-10	-3
CN(C)S(=O)(=O)n1cc(/C=C(\NC(=O)c2ccccc2Cl)C(=O)NCCN2CCOCC2)c2ccccc21	/	/	1.5	/	0
CCOCCCNC(=O)c1cn(CC)c2ccc(S(=O)(=O)N3CCCC3)cc2c1=O	/	/	-2.3	/	-2
CCC1(c2ccccc2)NC(=O)N(CC(=O)Nc2ccccc2N2CCCC2)C1=O (centres undefined)	/	/	-1.2	/	-1
CC(=O)Nc1nc(C)c(C(C)=O)s1	-9	-15%	2.0	-2	3
COc1ccccc1NS(=O)(=O)c1cc(NC(=O)CCC(=O)c2cccs2)ccc1Cl	-11	-1%	3.0	-1	-8
C=CCN(c1ccccc1)S(=O)(=O)c1ccc2c(c1)N(C(C)=O)CCO2	/	/	-0.6	/	-4
N/C(=N\OC(=O)CCCOc1ccccc1)c1ccc(Br)cc1	-35	7%	1.4	12	92
CN(C(=O)CCNC(=O)N1CC(=O)Nc2ccccc21)C1CCCCC1	/	/	-1.3	/	3
Cc1cc(C)c2nc(N3CCOCC3)c(C#N)cc2c1	/	/	-30	/	5
CCCOc1ccc2c(c1)C(=NN=C(N)N)c1cc(OCCC)ccc1-2	/	/	-3.1	/	100
O=[N+]([O-])c1ccc(CN2CCC(Cc3ccccc3)CC2)cc1	/	/	1.8	/	-2
Cc1nc(CN2CCN(Cc3nc(C(c4ccccc4)c4ccccc4)no3)CC2)cs1	/	4%	0.4	-7	2
CCn1nc(CC(=O)Nc2ccc(-n3cnnn3)c(C)c2)c2ccccc2c1=O	0	0%	-1.6	1	-7	Arbovirus inh repeat=1
Cc1ccc(C(=O)NC(=S)Nc2ccc3[nH]c(=O)[nH]c3c2)c(C)c1	/	-11%	-3.2	10	-6
NS(=O)(=O)c1cccc(NC(=O)COC(=O)C2CCCCC2)c1	/	-1%	-0.4	3	1
Cc1ccc(NC2=C(Cl)C(=O)OC2OC(C)C)c(C)c1 (centres undefined)	-16	-2%	0.3	5	6
CS(=O)(=O)c1ccccc1C(=O)N(CCC1=CCCCC1)c1c(N)n(Cc2ccccc2)c(=O)[nH]c1=O	/	/	4.3	/	1
CCC(=O)NC(NC(=S)Nc1cccc2cccnc12)C(Cl)(Cl)Cl (centres undefined)	-24	5%	-0.1	0	1
OCC1(Cc2ccccc2)CCN(Cc2cc3ccccc3o2)CC1	/	9%	-3.6	-9	1
COc1ccc(/C=C/C(=O)OCC(=O)Nc2ccc3[nH]c(=O)[nH]c3c2)cc1OC	/	/	-2.3	/	-1
COC(=O)[C@@H]1C[C@@]2(O)[C@@H](O)[C@@H](O)[C@@H](O)C[C@H]2N1Cc1ccc(C(F)(F)F)cc1	/	-10%	-2.1	/	-6
CN(C(=O)COC(=O)c1ccccc1Cc1ccccc1)C1CCS(=O)(=O)C1 (centres undefined)	/	/	1.0	/	-3
O=C1Nc2ccc(Br)cc2C12NNc1ccccc1O2 (centres undefined)	/	47%	5.6	-32	100

Following part.
SMILES	YopH inh	Mtb growth	RecA intein inh	Arbovirus inh	Mtb betalactam	others
Cc1ccc(C)c(C2C(C#N)=C(N)Oc3cc(C)oc(=O)c32)c1 (centres undefined)	-30	4%	0.4	0	-2
O=C(C1=C[C@H](c2csc3ccccc23)C[C@H](OCCCCO)O1)N1CCOCC1	/	-3%	0.7	2	-6
COc1cc2c(c(OCC(=O)NC(C)C)c1)C(=O)O[C@@H](C)CCCC(=O)CCCCC2	/	/	1.7	/	-1
O=C(CCCCCNc1nc(=S)[nH]c2ccccc12)NCCC1=CCCCC1	/	0%	-1.1	14	2
CC(C)[N+](C)(CCOC(=O)C1c2ccccc2Oc2ccccc21)C(C)C	-38	-1%	1.1	6	0
COc1cccc(NC(=O)N2CCC(NC(=O)C(Cc3cccc(C)c3)NC(C)=O)CC2)c1 (centres undefined)	/	/	-6.4	/	-1
CN(C)c1cc[n+](CCC(=O)Nc2cccc([N+](=O)[O-])c2N)cc1	-15	0%	1.2	-2	12
CCC(=O)N(CCN1CCOCC1)Cc1cc2cc3c(cc2nc1Cl)OCO3	/	-2%	/	3	-4
CCCCNC(=S)N(C)/N=C/c1ccc(OCC(=O)Nc2c(C)cc(C)cc2C)c(OC)c1	-24	?	-0.4	-25	95
COc1cc2c(cc1O)CC1c3c(cc(O)c(OC)c3-2)CCN1C (centres undefined)	/	1%	-5.3	-6	0
COc1ccc(-c2noc(-c3ccc4c(c3)OCO4)n2)cc1	-35	-6%	0.0	-1	2
Cc1cc(-c2n[nH]c(=S)n2/N=C/c2ccccc2[N+](=O)[O-])n[nH]1	-25	1%	-7.7	3	68
CCC(=O)N1CCN(c2ccccc2NC(=O)COc2ccccc2Cl)CC1	0	0%	3.1	8	12
Cn1nc(C(F)(F)F)c(C(=O)Nc2ccc(F)cc2F)c1Sc1ccc(Cl)cc1	-39	2%	-0.6	2	-16
O=C(CN1C(=O)c2ccccc2S1(=O)=O)Nc1ccccc1	17	-10%	-0.6	10	7
C=CCc1cc(/C=C2/NC(=S)NC2=O)cc(OC)c1O	-41	/	0.4	-20	48
COc1ccccc1-n1c(=S)[nH]c2c(sc(=S)n2-c2ccc(C)cc2C)c1=O	/	12%	-22	4	7
Cc1ccc(NC(=O)c2ccc(NCCCN3CCC(C)CC3)c([N+](=O)[O-])c2)cc1F	/	-2%	-0.3	3	-11
NC(=O)c1ccc(NC(=O)CSc2nnc(-c3ccncc3)n2Cc2ccco2)cc1	/	-5%	-0.4	/	5
CC(C)c1ccc(CNC(=O)C(=O)NCC2CCCO2)cc1 (centres undefined)	/	-3%	-0.6	-6	3
CCN(CC)c1nc(C)nc2c1sc(=S)n2C	/	-6%	2.7	14	-11
Oc1cccc2ccc(Nc3ccccn3)nc12	-65	?	-22	-36	97
O=C(Nc1ccc2[nH]ncc2c1)c1ccccc1Cl	/	/	1.1	/	-6
COc1ccc(OCCNc2c([N+](=O)[O-])c(=O)oc3ccccc23)cc1	/	3%	-3.6	-1	3
Cc1ccn2c(=O)nc(SCC(=O)N3CCCc4ccccc43)nc2c1	/	/	2.7	/	-5

New compounds follow:
SMILES	YopH inh	Mtb growth	RecA intein inh	Arbovirus inh	Mtb betalactam	others
Cc1ccc(S(=O)(=O)N2CCN(C(=O)N(c3ccccc3)c3ccccc3)CC2)cc1	-1	4%	6.5	-19	-1
O=C(CCc1nnc(Cc2ccc(-c3ccccc3)cc2)o1)NCCc1ccccn1	/	3%	0.9	-2	-9
O=C(NC(NCC1CCCO1)C(Cl)(Cl)Cl)c1cccc2ccccc12 (centres undefined)	-37	-4%	5.5	6	15
O=C1CCC(=O)N1CN(Cc1ccco1)CN1C(=O)CCC1=O	-76	-4%	/	3	-4
CCOC(=O)c1sc(N2C(=O)C(O)=C(C(=O)c3ccc(C)o3)C2c2cccc([N+](=O)[O-])c2)nc1C (centres undefined)	/	/	-1.1	/	-17
Cn1c(=O)c2c(O)cc(=O)[nH]c2n(-c2ccccc2)c1=O	-51	/	-2.0	6	-6
Cc1ccsc1C1C(C#N)=C(N)OC2=C1C(=O)CC(C)(C)C2 (centres undefined)	/	11%	4.5	11	-6
CCOc1ccc(-n2ccnc(SCC(=O)NCCc3ccccc3)c2=O)cc1	/	/	0.6	/	-4
O=C1NC(SCCCF)=N/C1=C/c1ccc(-n2cncn2)cc1	/	/	-3.6	/	0
Cc1ccc(Nc2ccc([N+](=O)[O-])ccc2=O)cc1	/	/	-3.4	/	-4
Cc1cc(C)c(NC(=O)CN2C(=O)NC3(CCCc4ccccc43)C2=O)c(Cl)c1 (centres undefined)	/	/	1.0	/	-10
Cc1cc2ncn(CCC(=O)NC(C)(C)C)c2cc1C	/	2%	1.9	-2	3
O=C1C(=Cc2cccn2-c2ccc(O)cc2)C(=O)c2ccccc21	-5	/	2.2	0	3
O=C(CCCn1cncn1)N1CCCC(N2CCN(c3ccc(F)cc3)CC2)C1 (centres undefined)	/	/	-1.3	/	-9
CCC1Sc2ccc(S(=O)(=O)CCC(=O)Nc3ccccc3Br)cc2NC1=O (centres undefined)	/	/	9.3	/	-6
COCCN1CCN(C(=O)c2ccc3oc(CCc4ccccc4)nc3c2)CC1	/	/	0.9	/	-7
COc1cc(/C=C(/C#N)c2nc3ccccc3[nH]2)ccc1OC(=O)c1ccco1	-90	3%	-4.1	4	12
Cc1c(OC(C)C(=O)NCC(O)c2ccccc2)ccc2c3c(c(=O)oc12)CCCC3 (centres undefined)	/	/	3.4	/	0
CC1CCC(NC(=O)c2ccc(S(C)(=O)=O)cc2)CC1 (centres undefined)	-19	2%	-0.5	-4	-2
Nc1c(-c2ccc3c(c2)OCCO3)oc2ccccc2c1=O	/	/	-24	/	3
COCC(=O)Nc1ccc2c(c1)OCC(=O)N2Cc1ccc(C)cc1	/	/	0.6	/	-3
CCN(CC)c1ccc(NC(=O)CC2Oc3ccccc3NC2=O)c(C)c1 (centres undefined)	-20	-7%	/	1	4
CCCCC(=O)O[C@]1(C(=O)CO)CC[C@H]2[C@@H]3CCC4=CC(=O)CC[C@]4(C)[C@H]3[C@@H](O)C[C@@]21C	-22	8%	0.1	20	-6
O=C(NC1CCCCC1)N1CCCC1	-28	-11%	-0.2	-4	-12
COc1cccc(OCc2cc(C(=O)N3CCN(c4ccccc4O)CC3)no2)c1	/	/	-3.4	/	1

(more compounds)
SMILES	YopH inh	Mtb growth	RecA intein inh	Arbovirus inh	Mtb betalactam	others
CCOc1cc(C)c(Cl)cc1S(=O)(=O)NC1CC(C)(C)NC(C)(C)C1	-18	6%	-2.0	-7	2
CCN1C(=O)C(CC(=O)Nc2ccc(OC)cc2)N(CCc2ccccc2F)C1=S (centres undefined)	/	2%	/	/	0
O=C1CC(c2ccccc2F)c2cc3c(cc2N1)CCC3 (centres undefined)	-42	/	3.5	-20	2
CN(C(=O)CC1C(=O)NCCN1Cc1ccc(F)c(F)c1)C1CCOCC1 (centres undefined)	/	-7%	-1.7	2	-6
CC#CC[N+](C)(C)CCCCCCCCCC	/	-4%	3.4	/	-3
CCNC(=S)N1CCCC(c2nc3ccc(C)cc3[nH]2)C1 (centres undefined)	/	-1%	/	1	3
Cc1[nH]c(=O)[nH]c(=O)c1S(=O)(=O)N(C)Cc1ccccc1	-29	-4%	0.6	-1	0
CCC(C)Sc1nc2c(c(=O)n1C)SC(C)C2 (centres undefined)	-22	15%	3.5	5	8	Arbovirus inh repeat=3
O=C(NCc1ccccn1)c1cc(-c2ccc(Br)cc2)nc2ccccc12	-6	9%	-1.2	-4	6
CN=C(c1ccc(C)cc1)n1c(=S)nc(-c2ccc(C)cc2)n(C)c1=S	/	-4%	4.2	3	8
COC(=O)c1c(NS(C)(=O)=O)sc2c1CCCC2	-47	-3%	-6.5	11	7
CC(=O)Nc1cccc(NC(=O)CSc2nn3c(=O)c(C)nnc3s2)c1	/	5%	-0.1	2	0	Arbovirus inh repeat=-1
CC(C)C(=O)NS(=O)(=O)c1ccc(NS(C)(=O)=O)cc1	/	0%	-1.1	/	-2
S=C(NCc1ccc2c(c1)OCO2)NCc1ccco1	/	6%	-0.4	-4	5
O=C(O)c1cccc(-n2cccc2/C=C2\SC(=O)N(Cc3ccccc3F)C2=O)c1	-18	1%	1.4	11	5
COc1ccc(-c2noc(CN(C)C(=O)c3ccc4c(c3)OCO4)n2)cc1OC	/	/	0.9	/	-5
N/C(Cn1cncn1)=N\NC(=O)C(=O)Nc1cccc(C(F)(F)F)c1	/	8%	-4.0	6	-9
Clc1cccc(CNCCc2c[nH]c3ccccc23)c1	/	/	1.1	/	19
Cc1ccccc1-n1c(-c2csc3ccccc23)n[nH]c1=S	-10	-2%	3.9	4	0
Cc1ccc(N2CC(C(=O)OCC(=O)c3ccc(F)cc3)CC2=O)cc1 (centres undefined)	/	/	0.8	/	2

Looked up one by one from the list above:
SMILES	YopH inh	Mtb growth	RecA intein inh	Arbovirus inh	Mtb betalactam	others
CCN1C(=O)C(CC(=O)Nc2ccc(OC)cc2)N(CCc2ccccc2F)C1=S (centres undefined)	/	2%	/	/	0
O=C(O)c1cccc(-n2cccc2/C=C2\SC(=O)N(Cc3ccccc3F)C2=O)c1	-18	1%	1.4	11	5
CCC(C)Sc1nc2c(c(=O)n1C)SC(C)C2 (centres undefined)	-22	15%	3.5	5	8	Arbovirus inh repeat=3
Cc1ccccc1-n1c(-c2csc3ccccc23)n[nH]c1=S	-10	-2%	3.9	4	0
CCNC(=S)N1CCCC(c2nc3ccc(C)cc3[nH]2)C1 (centres undefined)	/	-1%	/	1	3
CC#CC[N+](C)(C)CCCCCCCCCC	/	-4%	3.4	/	-3
